RGS16-Gao HTS: RGS16-Galphao interaction regulator (human) | bead-based flow cytometry RGS16-Galphao binding, fluorescence; actives lie on both sides | binding response (% of control), % at 10 µM | 0.38% of 220,000 active;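 active = below 25% or above 175%, edge rows of some plates excepted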;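 also: Galphao activated by GDP with aluminum fluoride before binding; 100% = wells without compound and 0% = beads without RGS; some results beyond the cut were filed as inactive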
Target sequence (O15492 whole entry, looked up): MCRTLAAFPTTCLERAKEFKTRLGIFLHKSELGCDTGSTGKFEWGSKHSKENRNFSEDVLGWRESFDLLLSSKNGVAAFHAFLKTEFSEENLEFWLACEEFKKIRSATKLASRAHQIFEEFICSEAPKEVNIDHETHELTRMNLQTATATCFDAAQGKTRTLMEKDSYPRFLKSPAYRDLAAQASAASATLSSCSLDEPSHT
Target sequence (P09471 whole entry, looked up): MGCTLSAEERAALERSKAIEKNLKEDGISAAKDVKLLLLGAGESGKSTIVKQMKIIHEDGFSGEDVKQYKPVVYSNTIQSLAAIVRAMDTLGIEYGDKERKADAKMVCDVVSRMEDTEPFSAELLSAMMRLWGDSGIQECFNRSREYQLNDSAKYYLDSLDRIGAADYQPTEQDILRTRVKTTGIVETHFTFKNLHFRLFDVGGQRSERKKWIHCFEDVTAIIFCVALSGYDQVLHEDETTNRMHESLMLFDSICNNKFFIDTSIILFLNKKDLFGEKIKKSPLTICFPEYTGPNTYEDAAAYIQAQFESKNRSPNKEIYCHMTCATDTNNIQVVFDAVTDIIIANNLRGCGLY
INS promoter inh: TRM-6 insulin promoter activity inhibition. 0.9% of 130,000 active. AID 1273. TRM-6 cells (human fetal islet line), insulin promoter-eGFP reporter, imaging; reporter expression induced with tamoxifen. inhibition, % at 2 µM;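 active = inhibition above the mean plus 3 SD, with well images judged a real hit on visual review, cut at about 60% in these data, passing the limit was not always enough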
GALR2 ag: GALR2 (human) receptor agonism. 0.48% of 140,000 active. GALR2-expressing cells, agonist activation read-out. O43603. AID 803. activation, %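 (tested at 5 µM)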;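 active = above mean plus 3 SD of all compounds, about 5% in these data, not always enough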;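 also: 0% = vehicle buffer wells and 100% = reference agonist at full effect; tested in CHO reporter cells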
Target sequence (O43603 whole entry, looked up): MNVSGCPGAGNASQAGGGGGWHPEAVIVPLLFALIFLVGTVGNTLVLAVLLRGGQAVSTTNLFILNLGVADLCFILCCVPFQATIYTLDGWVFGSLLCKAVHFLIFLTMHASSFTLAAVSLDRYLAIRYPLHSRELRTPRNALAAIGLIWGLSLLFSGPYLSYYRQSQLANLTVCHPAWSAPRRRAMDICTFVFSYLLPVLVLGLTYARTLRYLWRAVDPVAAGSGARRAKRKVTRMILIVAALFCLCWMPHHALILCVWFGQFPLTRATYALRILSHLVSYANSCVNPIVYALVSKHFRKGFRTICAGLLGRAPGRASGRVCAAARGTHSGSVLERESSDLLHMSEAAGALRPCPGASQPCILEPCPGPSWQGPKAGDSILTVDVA
HSV augment: HSV replication enhancement; HSV replication augmentation in cells, fold increase; maximum fold increase; 0.005% of 220,000 active;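 active = peak rise of 1.5-fold or more in the series; tested in PC3 cells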;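 also: first round at 10 µM; read as green reporter fluorescence; hits show the peak of a series up to 25 µM; 1 = signal of infected wells without compound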
PKD1 inh: PKD1 (human) kinase inhibition; Q15139; PKD1 kinase fluorescence polarization assay; inhibition, %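 (about 10 µM by stock and volumes)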; AID 797; 0.056% of 200,000 active;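 active = inhibition of 50% or more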;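 also: controls were vehicle for no effect and a reference inhibitor for full effect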
INS promoter inh cell count: recorded beside INS promoter inh, whose call it bears; normalized cell count, %; measured here: cell count, toxicity; reference of the scale not given here;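 cells exposed to compound for 48 h; stained nuclei by imaging scaled within each plate; lower means fewer cells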
HSV augment primary fold: second read-out of HSV augment, no call of its own (marks repeat the call); fold increase; compound at 10 µM; measured here: primary screen fold increase 10 uM; tested in PC3 cells;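 GFP signal in the first replicate; 1 = infected wells without compound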
* marks the source's active call; other numbers are inactive results; i = inactive; / = not tested or not shown.

Short forms: A = RGS16-Gao HTS; B = INS promoter inh; C = INS promoter inh cell count; D = GALR2 ag; E = HSV augment; F = HSV augment primary fold; G = PKD1 inh
smiles: OC(Cn1nnc2ccccc21)Cn1c(C(F)(F)F)nc2ccccc21 (configuration not stated)
  A: 120	B: 15	C: 79	D: -1.0	E: i	F: 0.91	G: 5
smiles: COC(=O)C1(O)CC(C(C)C)=NN1C(=O)c1ccc(Cl)cc1 (configuration not stated)
  A: 95	B: 4	C: 160	D: -1.4	E: i	F: 0.91	G: -10
smiles: Cc1c(C)c(C)c(S(=O)(=O)N2CCNCC2)c(C)c1C
  A: 106	B: -7	C: 155	D: /	E: i	F: 0.99	G: -1
smiles: COC(=O)CC1C(=O)NCCN1Cc1cn(-c2ccc(C)cc2)nc1-c1cccc(C)c1 (configuration not stated)
  A: 104	B: 33	C: 110	D: /	E: i	F: 1	G: 2
smiles: COc1ccccc1CNC(=O)Cn1cc2c(n1)CCCC2
  A: 103	B: /	C: /	D: -1.9	E: i	F: 1.4	G: -14
smiles: CC(=O)Nc1ccc(NC(=O)c2ccc(C3SCC(=O)N3CCc3ccccc3)cc2)cc1 (configuration not stated)
  A: 100	B: -78	C: 134	D: 0.0	E: i	F: 0.81	G: -9
smiles: CC1CCc2c(sc(NC(=O)c3ccc(Cn4cc(Br)cn4)o3)c2C(N)=O)C1 (configuration not stated)
  A: 99	B: 18	C: 133	D: 3.2	E: i	F: 0.93	G: -7
smiles: CCC(=O)N(CC(=O)Nc1sc(C)c(C)c1C(N)=O)Cc1ccc(F)cc1
  A: 99	B: /	C: /	D: /	E: i	F: 1	G: /
smiles: CCOc1ccc(Br)cc1S(=O)(=O)Nc1ccc(C(=O)OC(C)C(=O)N(C)c2ccccc2)cc1 (configuration not stated)
  A: 110	B: /	C: /	D: -0.5	E: i	F: 0.9	G: 11
smiles: O=c1[nH]c2ccccc2n1Cc1ccccc1
  A: 99	B: /	C: /	D: -1.5	E: i	F: 0.99	G: -8
smiles: CCn1c(=O)n(CC(=O)NCc2ccco2)c(=O)c2ccccc21
  A: 95	B: 27	C: 48	D: -2.4	E: i	F: 0.92	G: -1
smiles: CC(=O)c1ccccc1OC(=O)CCN1C(=O)c2ccccc2C1=O
  A: 103	B: /	C: /	D: /	E: i	F: 0.96	G: -5
smiles: Cc1ccc(N2CCN(S(=O)(=O)N3CCCCCC3)CC2)cc1Cl
  A: 89	B: -31	C: 72	D: -1.8	E: i	F: 1	G: -10
smiles: Cc1ccc(NC(=O)NNC(=O)c2ccccc2)cc1
  A: 103	B: /	C: /	D: /	E: i	F: 0.96	G: -6
smiles: CCOC(=O)c1c(NC(=O)CSc2nc3ccccc3c(=O)n2-c2ccc(F)cc2)sc(C(C)=O)c1C
  A: 91	B: -43	C: 73	D: 0.1	E: i	F: 1	G: -8
smiles: CC(=O)Nc1ccc(NC(=O)CSc2nc(C)nc3sc(C)c(C)c23)cc1
  A: 110	B: 7	C: 109	D: /	E: i	F: 0.77	G: -4
smiles: CO/N=C/NC(=O)NOCc1ccc(Cl)cc1Cl
  A: 97	B: 25	C: 96	D: 0.8	E: i	F: 0.99	G: -5
smiles: Cc1ccccc1OCC(=O)Nc1ccccc1N1CCC(C)CC1
  A: 95	B: -18	C: 81	D: /	E: i	F: 1	G: -9
smiles: O=c1[nH]c(NNC(=S)NC2CCCCC2)nc2c1C1(CCCC1)Cc1ccccc1-2
  A: 101	B: /	C: /	D: /	E: i	F: 1.1	G: /
smiles: COc1ccc(/C=C2\CCc3c2nc2ccccc2c3C(=O)O)cc1OC
  A: 92	B: /	C: /	D: /	E: i	F: 0.94	G: /
smiles: Cc1ccc(CNC(=O)Cn2c(=O)oc3ccccc32)o1
  A: 97	B: 9	C: 48	D: -0.3	E: i	F: 0.98	G: 4
smiles: CCCCCn1nc(C(=O)OCC(=O)c2c(N)n(C)c(=O)n(C)c2=O)c2ccccc2c1=O
  A: 106	B: 71*	C: 96*	D: /	E: i	F: 0.9	G: -5
smiles: CSCC[C@H](NC(=O)Nc1ccccc1C)C(=O)O
  A: 99	B: /	C: /	D: /	E: i	F: 1	G: /
smiles: COc1cc(OC)c(C2C(C(=O)Nc3ccc(C)cc3C)=C(C)Nc3ncnn32)cc1OC (configuration not stated)
  A: 100	B: 12	C: 107	D: -3.7	E: i	F: 0.96	G: -13
smiles: COc1ccccc1CNc1nc(-c2cc(C)n(C)c2C)cs1
  A: 77	B: /	C: /	D: /	E: i	F: 0.94	G: 0
smiles: COc1cc(C(=O)O)c2ccccc2n1
  A: 99	B: /	C: /	D: /	E: i	F: 0.98	G: -6
smiles: Nc1c(C(=O)Nc2cccc(F)c2)nnn1-c1cccc(C(F)(F)F)c1
  A: 106	B: 50	C: 80	D: /	E: i	F: 0.84	G: 0
smiles: COc1ccc(C2CC(=O)c3cnc(NC(=O)c4ccccc4)nc3C2)c(OC)c1 (configuration not stated)
  A: 108	B: 18	C: 104	D: -1.2	E: i	F: 0.73	G: 2
smiles: COc1ccc2nc(N3C(=O)CC(Cc4ccc(Cl)cc4)C3=O)sc2c1 (configuration not stated)
  A: 106	B: -18	C: 108	D: -0.7	E: i	F: 1.1	G: -8
smiles: Cc1occc1C(=O)Nc1sc2c(c1C(N)=O)CCCCC2
  A: 92	B: 53	C: 123	D: -1.4	E: i	F: 1	G: -10
smiles: Cc1cc2c(NC(=O)Nc3ccc(F)cc3)cccc2nn1
  A: 82	B: /	C: /	D: /	E: i	F: 1.1	G: /
smiles: CN(C)C(=O)c1sccc1Oc1ccc(F)cc1[N+](=O)[O-]
  A: 149	B: 25	C: 65	D: /	E: i	F: 0.94	G: -1
smiles: O=c1c2ccccc2cnn1-c1ccc(Cl)cc1
  A: 97	B: 19	C: 122	D: -0.4	E: i	F: 0.92	G: -1
smiles: Cc1cccc(C(=O)/C=C2/c3ccccc3CC(C)(C)N2C)c1
  A: 105	B: -5	C: 175	D: 0.1	E: i	F: 1.1	G: 8
smiles: CC(=O)OCc1cc(-c2nc3ccccc3[nH]c2=O)nn1-c1ccc(Cl)cc1
  A: 101	B: /	C: /	D: /	E: i	F: 0.86	G: /
smiles: CCCS(=O)(=O)N1CCC(C(=O)NCCCN2CCCC2=O)CC1
  A: 104	B: /	C: /	D: -3.8	E: i	F: 0.91	G: 0
smiles: CCOC(=O)c1c(C)n(C)c2cc(-c3ccc(C)cc3)c(O)cc12
  A: 99	B: -15	C: 79	D: 5.3*	E: i	F: 0.9	G: -3
smiles: Cc1nc(-c2nc(C(=O)NNS(C)(=O)=O)cs2)cs1
  A: 99	B: /	C: /	D: /	E: i	F: 0.99	G: /
smiles: C=CCNC(=S)NCC=C
  A: 97	B: /	C: /	D: /	E: i	F: 0.99	G: /
smiles: COc1ccccc1CNC(=O)C(NS(=O)(=O)c1ccc2c(c1)oc(=O)n2C)C(C)C (configuration not stated)
  A: 96	B: /	C: /	D: -2.5	E: i	F: 0.95	G: -10
smiles: CCOC(=O)c1sc(CS(=O)(=O)c2ccc(Cl)cc2)nc1C
  A: 96	B: /	C: /	D: /	E: i	F: 0.91	G: /
smiles: CCOC(=O)c1nnn(CC(=O)N2N=C(c3cccc4ccccc34)CC2c2ccccc2)c1C(=O)OCC (configuration not stated)
  A: 108	B: -10	C: 99	D: -0.9	E: i	F: 0.71	G: 2
smiles: CSc1nc2cc3c(cc2n1C(=O)c1ccc(C)cc1)OCCO3
  A: 101	B: /	C: /	D: -4.5	E: i	F: 0.99	G: -7
smiles: COc1ccc(C(=O)NCC(=O)NCC(=O)OCC(=O)C(C)(C)C)cc1
  A: 109	B: 7	C: 112	D: -0.5	E: i	F: 0.96	G: -2
smiles: O=C1CCc2cc(S(=O)(=O)NC(Cc3ccccc3)C(=O)NC3CCCCC3)ccc2N1 (configuration not stated)
  A: 100	B: /	C: /	D: -2.2	E: /	F: /	G: -13
smiles: CCOC(=O)C(=CNNc1c(C)csc1C(=O)OC)C(=O)OCC
  A: 96	B: /	C: /	D: /	E: i	F: 1	G: /
smiles: Cc1[nH]nc2c1C(c1ccccc1)C1=C(CC(C)(C)CC1=O)N2 (configuration not stated)
  A: i	B: -25	C: 103	D: -1.6	E: i	F: 0.84	G: 0
smiles: CCC(=O)N=c1sc2cc(F)cc(F)c2n1C
  A: /	B: /	C: /	D: 0.1	E: i	F: 0.91	G: 9
smiles: O=S(=O)(NCc1ccco1)c1ccc2c(c1)Cc1ccccc1-2
  A: 102	B: -238	C: 71	D: -0.8	E: i	F: 0.85	G: -2
smiles: CC(NCC(O)COc1ccc(S(=O)(=O)N2CCOCC2)cc1)c1ccccc1 (configuration not stated)
  A: 102	B: /	C: /	D: /	E: i	F: 1	G: 6

Carrying on.
Short forms: A = RGS16-Gao HTS; B = INS promoter inh; C = INS promoter inh cell count; D = GALR2 ag; E = HSV augment; F = HSV augment primary fold; G = PKD1 inh
smiles: CCOC(=O)c1cc(-c2ccccc2)sc1NC(=O)CCN1C(=O)c2ccccc2C1=O
  A: 105	B: /	C: /	D: -1.6	E: i	F: 1.1	G: 0
smiles: CCc1ccc(OCC(=O)O/N=C(\N)c2ccccn2)cc1
  A: 100	B: /	C: /	D: /	E: i	F: 1.1	G: /
smiles: CC(C)c1csc(CN2CCN(CCc3ccccc3)C(CCO)C2)n1 (configuration not stated)
  A: 117	B: /	C: /	D: /	E: i	F: 1.1	G: 4
smiles: CCN(CC)CCN(Cc1cc2ccc(C)cc2[nH]c1=O)C(=O)NC1CCCCC1
  A: 99	B: /	C: /	D: /	E: i	F: 1.2	G: 1
smiles: Cc1cccc(NC(=O)Cn2c(=O)n3nc(CCn4nc(C)cc4C)nc3c3ccccc32)c1
  A: 119	B: /	C: /	D: -1.3	E: i	F: 0.75	G: 7
smiles: Cc1ccnc(NS(=O)(=O)c2cnc(Cl)c(Br)c2)c1
  A: 102	B: /	C: /	D: -0.8	E: i	F: 1	G: -6
smiles: COc1cc(S(=O)(=O)N2CCN(C)CC2)c(OC)cc1Cl
  A: 89	B: -50	C: 84	D: 0.8	E: i	F: 1.1	G: -6
smiles: C(#Cc1ccccc1)CN1CCCCC1
  A: 103	B: /	C: /	D: /	E: i	F: 0.97	G: 4
smiles: CC(Oc1ccc(Cl)cc1Cl)C(=O)NCc1ccncc1 (configuration not stated)
  A: 100	B: /	C: /	D: -1.6	E: i	F: 0.98	G: 0
smiles: O=C(c1ccc(F)cc1)N1CCN(C(=O)c2cccnc2)CC1
  A: 103	B: 4	C: 92	D: -1.5	E: i	F: 0.98	G: -3
smiles: Cn1nc(-c2ccc3c(c2)OCCO3)c2ccccc2c1=O
  A: 102	B: -7	C: 109	D: /	E: i	F: 1.1	G: -4
smiles: COc1ccc(S(=O)(=O)n2nc(OCc3cccs3)cc2N)cc1
  A: 114	B: /	C: /	D: /	E: i	F: 0.98	G: 1
smiles: COc1ccc(NC(=O)CC(C)C)c([N+](=O)[O-])c1
  A: 103	B: 35	C: 121	D: -1.9	E: /	F: /	G: 10
smiles: Cc1ccc(N2C(=O)c3sc4nnc(C)c(=O)n4c3C2=O)cc1
  A: 98	B: 43	C: 59	D: -0.5	E: i	F: 0.94	G: 4

Grouped by structure: those above with a thiophene ring, fused or not.
Short forms: A = RGS16-Gao HTS; B = INS promoter inh; C = INS promoter inh cell count; D = GALR2 ag; E = HSV augment; F = HSV augment primary fold; G = PKD1 inh
smiles: CC1CCc2c(sc(NC(=O)c3ccc(Cn4cc(Br)cn4)o3)c2C(N)=O)C1 (configuration not stated)
  A: 99	B: 18	C: 133	D: 3.2	E: i	F: 0.93	G: -7
smiles: CCC(=O)N(CC(=O)Nc1sc(C)c(C)c1C(N)=O)Cc1ccc(F)cc1
  A: 99	B: /	C: /	D: /	E: i	F: 1	G: /
smiles: CCOC(=O)c1c(NC(=O)CSc2nc3ccccc3c(=O)n2-c2ccc(F)cc2)sc(C(C)=O)c1C
  A: 91	B: -43	C: 73	D: 0.1	E: i	F: 1	G: -8
smiles: CC(=O)Nc1ccc(NC(=O)CSc2nc(C)nc3sc(C)c(C)c23)cc1
  A: 110	B: 7	C: 109	D: /	E: i	F: 0.77	G: -4
smiles: Cc1occc1C(=O)Nc1sc2c(c1C(N)=O)CCCCC2
  A: 92	B: 53	C: 123	D: -1.4	E: i	F: 1	G: -10
smiles: CN(C)C(=O)c1sccc1Oc1ccc(F)cc1[N+](=O)[O-]
  A: 149	B: 25	C: 65	D: /	E: i	F: 0.94	G: -1
smiles: CCOC(=O)C(=CNNc1c(C)csc1C(=O)OC)C(=O)OCC
  A: 96	B: /	C: /	D: /	E: i	F: 1	G: /
smiles: CCOC(=O)c1cc(-c2ccccc2)sc1NC(=O)CCN1C(=O)c2ccccc2C1=O
  A: 105	B: /	C: /	D: -1.6	E: i	F: 1.1	G: 0
smiles: COc1ccc(S(=O)(=O)n2nc(OCc3cccs3)cc2N)cc1
  A: 114	B: /	C: /	D: /	E: i	F: 0.98	G: 1
